Screening data from PubChem.
ALOX12 inhib = inhibitors of human 12-lipoxygenase (ALOX12); P18054; actives 0.12% (n = 150,000); Potency, µM (doses to about 57.1 µM), for inactives: top-dose activity change, negative = inhibition, usual class: inhibitors; AID 1452; purified 12-hLO, xylenol orange hydroperoxide absorbance; active = well fitted inhibition curve with a large enough effect; inconclusive = small, poorly fitted or top-dose-only effect; also: potency is read from the fitted curve at half-maximal effect; nearly all actives have a fitted effect of over 55% in size; many of its hits are not listed in these tables
Target sequence (P18054 whole entry, looked up): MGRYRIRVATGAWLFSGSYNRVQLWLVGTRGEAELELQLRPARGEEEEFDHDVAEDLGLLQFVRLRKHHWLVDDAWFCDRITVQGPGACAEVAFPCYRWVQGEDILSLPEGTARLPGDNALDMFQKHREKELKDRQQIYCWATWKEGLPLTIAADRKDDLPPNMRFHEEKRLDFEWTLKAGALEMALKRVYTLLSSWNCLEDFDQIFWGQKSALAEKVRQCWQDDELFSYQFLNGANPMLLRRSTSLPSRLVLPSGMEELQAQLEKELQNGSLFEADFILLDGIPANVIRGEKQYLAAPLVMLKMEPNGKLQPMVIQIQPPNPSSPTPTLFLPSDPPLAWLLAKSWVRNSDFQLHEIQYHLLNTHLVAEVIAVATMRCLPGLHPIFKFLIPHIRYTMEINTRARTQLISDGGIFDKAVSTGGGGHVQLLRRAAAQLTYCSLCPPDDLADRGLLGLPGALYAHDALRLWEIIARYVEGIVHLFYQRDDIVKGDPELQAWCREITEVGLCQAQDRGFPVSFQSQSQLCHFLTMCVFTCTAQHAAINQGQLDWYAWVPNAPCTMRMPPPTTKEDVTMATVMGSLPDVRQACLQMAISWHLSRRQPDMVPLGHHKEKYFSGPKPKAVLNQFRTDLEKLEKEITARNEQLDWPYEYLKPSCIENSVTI
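150 nM 12hLO, 25 mM Hepes pH 7.0 + 0.01% Triton X-100; cpd preinc 15 min RT; 40 uM arachidonic acid, 30 min RT; Fe-XO 30 min; A573/A405 ratio as read-out.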
PNC inhibitor = perinucleolar compartment assembly inhibition; PC3M PTB-GFP, PNC prevalence imaging, 16 h; hits give low values; activity change (PNC), negative = inhibition, % at 10 µM; actives 3.1% (n = 140,000);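 active = readout at or below -70, meaning at least 70% loss of cells showing the perinucleolar compartment, a nuclear body marking cancer cells; inconclusive = readout between -30 and a set limit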;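 also: plate controls were DMSO wells for no effect and camptothecin positive control wells for full effect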
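Compounds are pinned in duplicate onto adhered PC3M cells stably expressing GFP-tagged PTB and incubated 16 h at 37 C. Cells are then fixed, nuclei stained with Hoechst, and PNC-positive cells counted.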
IMPase inh = cell-permeable inhibitors of inositol monophosphatase (IMPase) | 120,000 tested, under 10 active | inhibition (IP1 accumulation), % at 46.1 µM | CHO-M1 cells, IP1 accumulation, HTRF TR-FRET ratio | P97697; active = well fitted curve in the direction sought with a large enough effect in the signal ratio, not every such curve was filed as active; inconclusive = small, poorly fitted or top-dose-only effect, or a change in a side signal; inactive = no such curve, though single readings can be large or run the other way; the % refers to the signal ratio;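 also: cells stimulated with carbachol in lithium chloride buffer; plate controls were DMSO basal wells for no effect and reference inhibitor wells for full effect; higher means more IMPase inhibition seen as more IP1 and lower FRET ratio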
Target sequence (P97697 whole entry, looked up): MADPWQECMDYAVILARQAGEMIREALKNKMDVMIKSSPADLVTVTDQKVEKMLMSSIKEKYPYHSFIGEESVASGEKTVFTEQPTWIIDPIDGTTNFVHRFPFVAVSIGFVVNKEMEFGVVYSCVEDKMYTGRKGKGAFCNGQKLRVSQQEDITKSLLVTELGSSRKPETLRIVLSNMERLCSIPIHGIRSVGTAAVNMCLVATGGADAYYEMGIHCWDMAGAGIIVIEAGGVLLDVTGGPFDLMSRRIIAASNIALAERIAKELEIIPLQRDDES
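Seeded CHO-M1 cells were dosed with compound at up to 46 uM, stimulated with carbachol for 30 min, then lysed in IP-One detection reagents. Higher IP1 lowers the TR-FRET signal.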
Active calls of the source: *; ? = inconclusive; . = no result given; [ ] = another dose, or the depositor's remark. Unless noted, % is scaled to controls: 0 for no effect and ±100 for the full control effect. These rows are one share of the data (hit frequency here may not be typical).

> O=C(Nc1ccc2c(c1)C(=O)N(C1CCCCC1)C2=O)C1CCCO1 (stereo unspecified)
  ALOX12 inhib: 1% | PNC inhibitor: 16 | IMPase inh: 12

> FC(F)(F)c1cc(-c2ccc(Cl)cc2)nc(NCc2cccnc2)n1
  ALOX12 inhib: 6% | PNC inhibitor: -5 | IMPase inh: 8

> Cn1ccnc1SC(=O)N1c2ccccc2Sc2ccccc21
  ALOX12 inhib: -29% | PNC inhibitor: -3 | IMPase inh: 24

> COc1cc2c(cc1OC)CN(C(=O)c1ccccc1C(=O)O)CC2
  ALOX12 inhib: -3% | PNC inhibitor: -12 | IMPase inh: 2

> Cc1cccc(NC(=O)CN2C(=O)CNC2=O)c1
  ALOX12 inhib: 11% | PNC inhibitor: 49 | IMPase inh: 5

> Cc1cc(OCc2nc(-c3ccc(NC(=O)c4cccnc4)cc3)no2)ccc1Cl
  ALOX12 inhib: 4% | PNC inhibitor: 34 | IMPase inh: 3

> O=C(OC1CCN(c2ncc(C(F)(F)F)cc2Cl)CC1)c1ccc(Cl)cc1
  ALOX12 inhib: 1% | PNC inhibitor: -16 | IMPase inh: -4

> O=C(O)c1ccc(-n2nnnc2Oc2cccc3cccnc23)cc1
  ALOX12 inhib: -5% | PNC inhibitor: ? | IMPase inh: 9

> COCCn1c(=O)[nH]c2cc(C(=O)N3CCN(c4ccccc4OC)CC3)ccc2c1=O
  ALOX12 inhib: 3% | PNC inhibitor: 8 | IMPase inh: -2

> CN(C)c1cccc(C(=O)Nc2cccc(F)c2)c1
  ALOX12 inhib: 3% | PNC inhibitor: ? | IMPase inh: 12

> O=C(Cc1n[nH]c(=O)c2ccccc12)OCC(=O)c1ccc2c(c1)OCCO2
  ALOX12 inhib: -5% | PNC inhibitor: -102* | IMPase inh: 5

> Cc1cc(NC(=O)CSc2nnc(C3CC3)n2Cc2ccccc2)no1
  ALOX12 inhib: 2% | PNC inhibitor: 10 | IMPase inh: -4

> O=C(/C=C/NNC(=O)c1cccc(Br)c1)c1ccccc1
  ALOX12 inhib: -27% | PNC inhibitor: 15 | IMPase inh: 7

> S=C(Nc1ccc(Oc2ccccc2)cc1)NC1CCCCC1
  ALOX12 inhib: ? | PNC inhibitor: ? | IMPase inh: 4

> NC(=S)N/N=C/c1ccccc1OCc1cccc(Cl)c1
  ALOX12 inhib: ? | PNC inhibitor: 37 | IMPase inh: 7

> CCC(C)(C)n1nnnc1C(c1ccc(Cl)cc1)N1CCN(C)CC1 (stereo unspecified)
  ALOX12 inhib: 2% | PNC inhibitor: ? | IMPase inh: 7

> Cc1cc(O)c(C(C)C)cc1CN1CCCCC1
  ALOX12 inhib: -5%[11.4 µM] | PNC inhibitor: . | IMPase inh: .

> CCc1ccc(N2C(=O)C3ON(c4ccccc4)C(c4ccco4)C3C2=O)cc1 (stereo unspecified)
  ALOX12 inhib: 0% | PNC inhibitor: -13 | IMPase inh: 5

> Cc1ccc(CNc2nc3ccc(C)cc3n3cnnc23)cc1
  ALOX12 inhib: 4% | PNC inhibitor: 25 | IMPase inh: 0

> CCc1ccc(C(=O)N2CCC(c3nc4ccccc4s3)CC2)cc1
  ALOX12 inhib: -1% | PNC inhibitor: ? | IMPase inh: 8

> Cc1ccc(S(=O)(=O)N2CCC(C(=O)N[C@H](C(=O)NCC3CCCO3)C(C)C)CC2)cc1 (stereo partly specified)
  ALOX12 inhib: -6% | PNC inhibitor: 33 | IMPase inh: 5

> CCN1CCN(C(c2cc3cc4c(cc3[nH]c2=O)OCO4)c2nnnn2C(C)(C)CC)CC1 (stereo unspecified)
  ALOX12 inhib: 5% | PNC inhibitor: -22 | IMPase inh: -3

> O=c1cc(CN2CCN(c3ccccc3)CC2)c2c(ccc3ccccc32)o1
  ALOX12 inhib: -6% | PNC inhibitor: 33 | IMPase inh: 4

> COc1cc(/C=N/NC(N)=S)ccc1OC(=O)c1ccc(C)cc1
  ALOX12 inhib: -14% | PNC inhibitor: -3 | IMPase inh: ?

> COc1ccc2[nH]c(C)c(C(=O)CN3CC(C)OC(C)C3)c2c1 (stereo unspecified)
  ALOX12 inhib: -4% | PNC inhibitor: ? | IMPase inh: 2

Profiles from above.
NC(=S)N/N=C/c1ccccc1OCc1cccc(Cl)c1 is listed as ALOX12 inhib = ?; PNC inhibitor = 37; IMPase inh = 7
Cc1cc(OCc2nc(-c3ccc(NC(=O)c4cccnc4)cc3)no2)ccc1Cl is listed as ALOX12 inhib = 4%; PNC inhibitor = 34; IMPase inh = 3
O=C(Nc1ccc2c(c1)C(=O)N(C1CCCCC1)C2=O)C1CCCO1 (stereo unspecified) is listed as ALOX12 inhib = 1%; PNC inhibitor = 16; IMPase inh = 12

Single values from the results shown.
O=C(Nc1ccc2c(c1)C(=O)N(C1CCCCC1)C2=O)C1CCCO1 (stereo unspecified) @ IMPase inh: 12
CCN1CCN(C(c2cc3cc4c(cc3[nH]c2=O)OCO4)c2nnnn2C(C)(C)CC)CC1 (stereo unspecified) @ IMPase inh: -3
Cc1ccc(CNc2nc3ccc(C)cc3n3cnnc23)cc1 @ PNC inhibitor: 25
CCc1ccc(C(=O)N2CCC(c3nc4ccccc4s3)CC2)cc1 @ ALOX12 inhib: -1%
FC(F)(F)c1cc(-c2ccc(Cl)cc2)nc(NCc2cccnc2)n1 @ PNC inhibitor: -5
Cc1cc(OCc2nc(-c3ccc(NC(=O)c4cccnc4)cc3)no2)ccc1Cl @ IMPase inh: 3

Further structures
> COc1cc(NC(=S)NC(=O)c2ccc(C)cc2C)ccc1NC(=O)c1cccs1
  ALOX12 inhib: ? | PNC inhibitor: -12 | IMPase inh: ?

> COc1ccc(-c2nnn(CC(=O)Nc3sc4c(c3C#N)CCCC4)n2)cc1
  ALOX12 inhib: 0% | PNC inhibitor: ? | IMPase inh: 7

> Cn1c(=O)c2c(nc(-n3ccnc3)n2Cc2ccc(Cl)cc2Cl)n(C)c1=O
  ALOX12 inhib: -1% | PNC inhibitor: ? | IMPase inh: 8

> CSCCC(NC(=O)OC(C)(C)C)C(=O)NC(C(=O)NC(CC(C)C)C(N)=O)C(C)C (stereo unspecified)
  ALOX12 inhib: -2% | PNC inhibitor: ? | IMPase inh: -7

> Cc1ccc(COc2ccc(Br)cc2/C=N/O)cc1
  ALOX12 inhib: -3% | PNC inhibitor: -12 | IMPase inh: 8

> Cc1ccc(NC(=S)N2CCC(c3nc4ccccc4s3)CC2)cc1C
  ALOX12 inhib: ? | PNC inhibitor: -12 | IMPase inh: -3

> O=C(CCCCCn1c(=S)[nH]c2cc3c(cc2c1=O)OCO3)N1CCN(C2CCCCC2)CC1
  ALOX12 inhib: -19% | PNC inhibitor: 29 | IMPase inh: 8

> CCOC(=O)c1ccc(NC(=O)C2(c3ccc(OC)cc3)CCCC2)cc1
  ALOX12 inhib: 0% | PNC inhibitor: 34 | IMPase inh: 15

> O=S(=O)(c1ccc(S(=O)(=O)N2CCCC2)cc1)N1CCCCCC1
  ALOX12 inhib: 6% | PNC inhibitor: -8 | IMPase inh: 0

> CCC(=O)Nc1ccc(S(=O)(=O)N2CCCCC2)cc1OC
  ALOX12 inhib: 3% | PNC inhibitor: -3 | IMPase inh: 7

> Cc1cccc(-n2nnc(C(=O)N3CCc4ccccc4C3)c2N)c1
  ALOX12 inhib: -7% | PNC inhibitor: 41 | IMPase inh: 4

> COC(=O)CCS(=O)(=O)c1ccc(Cl)cc1
  ALOX12 inhib: -7% | PNC inhibitor: 41 | IMPase inh: 2

> COc1[nH]c(/N=C/c2ccccc2)c(C#N)c1C#N
  ALOX12 inhib: 0% | PNC inhibitor: 6 | IMPase inh: 12

> CCCCNc1nc(N(C)c2ccccc2)nc(-n2ccnc2)n1
  ALOX12 inhib: -10% | PNC inhibitor: -6 | IMPase inh: -7

> c1coc(Cn2nnnc2CN2CCN(C3CCCC3)CC2)c1
  ALOX12 inhib: 1% | PNC inhibitor: ? | IMPase inh: 1

> CCC(=O)NC(=S)Nc1cccc(Cl)c1N1CCCCC1
  ALOX12 inhib: ? | PNC inhibitor: ? | IMPase inh: 3

> CCn1c(COc2ccc(Cl)cc2)nnc1SCC(=O)Nc1ccc2c(c1)OCO2
  ALOX12 inhib: -13% | PNC inhibitor: -24 | IMPase inh: -7

> COCCn1c(=O)[nH]c2cc(C(=O)NCCN3CCN(c4ccccc4F)CC3)ccc2c1=O
  ALOX12 inhib: 2% | PNC inhibitor: -11 | IMPase inh: -17

> CCCCNC(=O)CCC(=O)Nc1ncc(-c2ccc(C)cc2)n1C
  ALOX12 inhib: -10% | PNC inhibitor: 26 | IMPase inh: -1

> Cc1ccc2[nH]c(=O)c(C(c3nnnn3Cc3ccccc3)N3CCc4ccccc43)cc2c1 (stereo unspecified)
  ALOX12 inhib: -18% | PNC inhibitor: ? | IMPase inh: 8

> CC(C)C(NC(=O)OCc1ccccc1)C(=O)OCC(=O)NCc1ccco1 (stereo unspecified)
  ALOX12 inhib: 5% | PNC inhibitor: -27 | IMPase inh: 0

> CCn1c(CCNC(=O)c2ccc(Cl)cc2)nnc1SCC(=O)NC1CCCC1
  ALOX12 inhib: -1% | PNC inhibitor: 23 | IMPase inh: -5

> CC(C)OC(=O)CCCN1C(=O)c2ccc(N)cc2C1=O
  ALOX12 inhib: -2% | PNC inhibitor: -28 | IMPase inh: -4

> CCC(=O)Nc1nc(C)c(Oc2ccccc2)c(=O)[nH]1
  ALOX12 inhib: 5% | PNC inhibitor: 28 | IMPase inh: -1

> Cc1ccc(C(=O)NNC(=S)NC(=O)c2ccc(Cl)cc2Cl)cc1
  ALOX12 inhib: -4% | PNC inhibitor: -5 | IMPase inh: 1

Laid out differently: results already given
Each structure is followed by: ALOX12 inhib | PNC inhibitor | IMPase inh
CCCCNc1nc(N(C)c2ccccc2)nc(-n2ccnc2)n1
    -10% | -6 | -7
c1coc(Cn2nnnc2CN2CCN(C3CCCC3)CC2)c1
    1% | ? | 1
CCC(=O)NC(=S)Nc1cccc(Cl)c1N1CCCCC1
    ? | ? | 3
CCn1c(COc2ccc(Cl)cc2)nnc1SCC(=O)Nc1ccc2c(c1)OCO2
    -13% | -24 | -7
COCCn1c(=O)[nH]c2cc(C(=O)NCCN3CCN(c4ccccc4F)CC3)ccc2c1=O
    2% | -11 | -17
CCCCNC(=O)CCC(=O)Nc1ncc(-c2ccc(C)cc2)n1C
    -10% | 26 | -1

Three structures out of the list, arranged by number of heavy atoms, highest first:
> CSCCC(NC(=O)OC(C)(C)C)C(=O)NC(C(=O)NC(CC(C)C)C(N)=O)C(C)C (stereo unspecified)
  ALOX12 inhib: -2% | PNC inhibitor: ? | IMPase inh: -7

> CCn1c(COc2ccc(Cl)cc2)nnc1SCC(=O)Nc1ccc2c(c1)OCO2
  ALOX12 inhib: -13% | PNC inhibitor: -24 | IMPase inh: -7

> O=S(=O)(c1ccc(S(=O)(=O)N2CCCC2)cc1)N1CCCCCC1
  ALOX12 inhib: 6% | PNC inhibitor: -8 | IMPase inh: 0

The list continues.
| compound | ALOX12 inhib | PNC inhibitor | IMPase inh |
| --- | --- | --- | --- |
| CC1CCc2ccccc2N1C(=O)c1cccs1 (stereo unspecified) | -1% | -23 | 0 |
| COc1ccc(C2CC2/C(C)=N/OC(=O)c2cccs2)cc1 (stereo unspecified) | 2% | 77 | 0 |
| CC(C)(C)NC(=O)CN(C(=O)CCN1CCCc2ccccc21)C(C)(C)C | 0% | 28 | 1 |
| O=C(NC1CCCCC1)C1CC(=O)N(CCc2ccccc2)C1 (stereo unspecified) | 3% | ? | -6 |
| CC(=O)Cc1nsc(NC(=O)c2ccc(-c3ccc(Cl)c(C(F)(F)F)c3)o2)n1 | -3% | 1 | -4 |
| CC(NC(=O)CCc1ccc(S(=O)(=O)NC2CCCCC2)cc1)c1ccccc1 (stereo unspecified) | 3% | 5 | -2 |
| C/C=C/c1ccc(Oc2nnnn2-c2ccc(C(=O)O)cc2)c(OC)c1 | -3% | ? | 16 |
| COc1ccccc1-n1c(-c2ccc(NS(C)(=O)=O)cc2)n[nH]c1=S | -1% | -20 | -6 |
| CCOC(=O)C(C(=O)OCC)C(C)C#CCN1CCCCC1 (stereo unspecified) | 5% | 6 | 14 |
